Mtb hypoxia inh – Mtb hypoxia fluorescent reporter inhibition; M. tuberculosis hypoxia-regulated fluorescent reporter, fluorescence; fluorescence inhibition, % (test concentration not listed); actives 0.1% (n = 300,000);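 active = 35 to 45% if threefold the growth effect, above 45% if 1.5-fold the growth effect; inactive = the rest, general growth blockers included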;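 also: wells of about 50 µL received 100 nL stock; 0% = vehicle wells and 100% = reference inhibitor wells; whole bacteria with a GFP reporter of the hypoxia response; strong numbers were not always called active; many hits fall short of the cut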
BJeLR viability – kills HRASV12-expressing BJeLR cells; actives 0.17% (n = 300,000); BJeLR (HRASV12) viability, CellTiter-Glo ATP luminescence, 48 h; reference of the scale not given here; inhibition, % (concentration not given with the values);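 active = replicate mean above 50%; inconclusive = above 50% but judged a plate artefact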;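 also: 50 nL library stock added to about 25 µL; numbers are from one replicate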
PrP 5UTR inh – suppresses PrP 5' UTR mRNA reporter expression; cell-based PrP 5' UTR mRNA reporter, plate reader; inhibition, % (no concentration beside the values); actives 0.35% (n = 340,000); AID 488862;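 active = every replicate at 50% or more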;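 also: 0 = median of the neutral control wells; tested in H4 reporter cells; numbers are from one replicate; inactives centre near -14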
Sa ugtP lethal – growth inhibition of S. aureus ugtP deletion strain. S. aureus RN4220 ugtP deletion, OD600 growth, 16 h; some inactives read as strong as hits. growth inhibition, % (no concentration beside the values). actives 0.54% (n = 330,000). AID 1259309;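 active = z-score under -3 and OD600 up to 0.15 on both plates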;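 also: plate controls were untreated wells for no effect and antibiotic for full effect; wells of about 80 µL received 100 nL stock; the first replicate is given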
Sa RN4220 lethal – kills Staphylococcus aureus RN4220 | S. aureus RN4220 growth, OD600, 16 h | actives 0.33% (n = 330,000) | AID 1259311 | inhibition, % (concentration not given with the values);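 active = z-score of -3 or lower and OD600 up to 0.18 on both plates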;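 also: plate controls were untreated cells for no effect and reference antibiotic for full effect; stock transfer was 100 nL into about 80 µL; one replicate is shown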
Autofluor counter – compound fluorescence in toxin protease inhibitor counterscreen; compound autofluorescence counterscreen, microsphere flow cytometry; stronger effect = higher value; fluorescence intensity (no concentration beside the values); actives 3.1% (n = 360,000); AID 624483;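 active = at least 3 SD above the mean of all compounds, about 16000 in these data; inconclusive = too few beads counted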;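 also: 100 nL of 1 mM stock went into each well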
Mtb hypoxia inh growth – further read-out of Mtb hypoxia inh, marked with its call; growth inhibition, %; measured here: M. tuberculosis growth (absorbance);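 0% = vehicle and 100% = reference antibiotic; read after six days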
* = called active by the depositor; ? = inconclusive; . = not tested or not shown.

Values in the order: Mtb hypoxia inh, Mtb hypoxia inh growth, BJeLR viability, PrP 5UTR inh, Sa ugtP lethal, Sa RN4220 lethal, Autofluor counter
(1) Cc1nn(-c2ccc(N3CCOCC3)nn2)c(C)c1CCC(=O)NCc1ccccc1
    14, 4, 11, -10, -2, 0.6, 5381
(2) COc1ccc(Cl)cc1C(=O)NC1=NCCS1
    9, -14, -6, -18, 2, 1.5, 3805
(3) CN(C)c1ccc(C=NNC(=O)CCC(=O)NCc2ccccc2)cc1
    7, 3, ., ., 5, 6.6, .
(4) CC1(C)N=C(SCC(=O)Nc2ccc(Cl)cc2Cl)C(c2ccccc2)=N1
    1, 4, 8, -10, -2, 6.5, 4423
(5) Cc1c(C(=O)Nc2ccc(Cl)cn2)oc2ccccc12
    ., ., -1, -84, 13, -1.6, 4791
(6) CC(=NNC(=O)c1cccs1)c1cccc(N)c1
    1, -2, ., ., 14, 3.4, .
(7) C=CCNC(=O)c1snnc1-c1ccccc1
    ., ., -5, -26, -5, -1.2, 2095
(8) c1ccc(-c2cnc(CSc3nnc4ccccn34)o2)cc1
    7, 8, 0, -81, 2, 3.5, 3798
(9) Cc1cc(C(=O)N/N=C/c2cccc3ccccc23)c(C)o1
    ., ., -7, -13, ., ., 5853
(10) N#Cc1c(-c2ccc(Cl)cc2)ccnc1N1CCOCC1
    -2, 4, 1, 45, 18, 6.3, 3699
(11) Cc1cc(C)c(NC(=S)N(CCN2CCCCC2)Cc2ccco2)c(C)c1
    2, 10, -7, -23, 3, -0.6, 4735
(12) O=S1(=O)CC2(N3CCOCC3)CCCCCCC21 (stereo unspecified)
    -1, -8, 9, -28, -1, 2.9, 23822*
(13) Cc1cc(C)c2nc(-c3ccccn3)cc(C(=O)N3CCCC3)c2c1
    -7, -3, -5, -13, 2, 3.5, 5370
(14) COC1CCCN(C(=O)c2cccc(OC3CCN(S(C)(=O)=O)CC3)c2)C1 (stereo unspecified)
    7, -1, -4, -17, 1, 0.5, 6441
(15) O=C(c1cn2ccccc2n1)N1CCCC(Nc2ccc(F)c(F)c2)C1 (stereo unspecified)
    4, 2, 6, 7, 0, 2.6, 5646
(16) O=C(CCc1nc(-c2ccccc2Cl)no1)NCc1ccco1
    -8, 0, 5, -2, 5, 16, 4495
(17) Cc1ccc(-c2nc(C(=O)NC3CCCCCC3)no2)cc1
    ., ., -4, -23, 11, 2.8, 5733
(18) COc1ccc(C(C)=NNC(=O)CNC(=O)c2cccs2)cc1
    14, 7, ., ., 21, 1.2, .
(19) COc1ccccc1NC(=O)CC(C)=NNC(=O)COc1c(Br)cc(Br)cc1OC
    -3, 0, ., ., 7, 8.7, .
(20) C[C@]12CCC(=O)C=C1CCC1C2C(=O)C[C@]2(C)C(=O)CCC12 (stereo partly specified)
    -3, 3, ., ., 5, 10, .

The final seven entries of the part before are carried over, then new ones follow:
Values in the order: Mtb hypoxia inh, Mtb hypoxia inh growth, BJeLR viability, PrP 5UTR inh, Sa ugtP lethal, Sa RN4220 lethal, Autofluor counter
(14) COC1CCCN(C(=O)c2cccc(OC3CCN(S(C)(=O)=O)CC3)c2)C1 (stereo unspecified)
    7, -1, -4, -17, 1, 0.5, 6441
(15) O=C(c1cn2ccccc2n1)N1CCCC(Nc2ccc(F)c(F)c2)C1 (stereo unspecified)
    4, 2, 6, 7, 0, 2.6, 5646
(16) O=C(CCc1nc(-c2ccccc2Cl)no1)NCc1ccco1
    -8, 0, 5, -2, 5, 16, 4495
(17) Cc1ccc(-c2nc(C(=O)NC3CCCCCC3)no2)cc1
    ., ., -4, -23, 11, 2.8, 5733
(18) COc1ccc(C(C)=NNC(=O)CNC(=O)c2cccs2)cc1
    14, 7, ., ., 21, 1.2, .
(19) COc1ccccc1NC(=O)CC(C)=NNC(=O)COc1c(Br)cc(Br)cc1OC
    -3, 0, ., ., 7, 8.7, .
(20) C[C@]12CCC(=O)C=C1CCC1C2C(=O)C[C@]2(C)C(=O)CCC12 (stereo partly specified)
    -3, 3, ., ., 5, 10, .
(21) NC(=O)C1CCN(C(=O)Cc2ccc([N+](=O)[O-])cc2)CC1
    11, 3, 11, -19, 1, 3.3, 1934
(22) Cc1[nH]c(SCC(=O)c2c(N)n(C)c(=O)n(C)c2=O)nc1Cc1ccccc1
    4, 4, ., -26, 6, 2.7, 3474
(23) Nn1c(SCc2ccccn2)nncc1=O
    -1, 1, 4, -4, 6, 11, 3118
(24) O=C(NC1CCCC1)c1cccc(S(=O)(=O)N2CCCCC2)c1
    ., ., 2, 3, 0, 6.3, 3615
(25) Cc1ccc(S(=O)(=O)NC2c3cccc4cccc(c34)C2Sc2ncccn2)cc1 (stereo unspecified)
    ., ., -13, 5, -6, 3.0, 2466
(26) Cc1c(OCC(=O)NC(Cc2ccc(Cl)cc2)C(=O)O)ccc2c3c(c(=O)oc12)CCCC3 (stereo unspecified)
    ., ., 6, -7, -4, 2.3, 6089
(27) CC(=O)N(CC(=O)O)c1ccccc1C(=O)O
    ., ., -9, -22, -2, 1.5, 2183
(28) O=[N+]([O-])c1ccc2nc(-c3ccc(Cl)cc3)n(OCc3ccccc3)c2c1
    5, -2, 0, -55, -1, 3.3, 9742
(29) CC(O)C(C(=O)N1CCNCC1)n1cc(CCCCN)nn1 (stereo unspecified)
    4, 17, ., ., -1, -1.3, .
(30) N/C(=N\OC(=O)COc1ccc([N+](=O)[O-])cc1)c1ccncc1
    ., ., -3, -16, ., ., 2088
(31) Cc1oc(-c2cc3c(cc2Cl)OCO3)nc1CN1CCCC(C(=O)N2CCOCC2)C1 (stereo unspecified)
    8, 12, 0, 0, 7, -0.5, 4412
(32) NNC(=O)CNC(c1ccccc1)c1cc(Br)ccc1NC(=O)c1cccc(Cl)c1 (stereo unspecified)
    7, 3, 16, -3, -8, -1.9, 2143
(33) CN(C)CCN=Cc1c(O)n(Cc2ccco2)c(=O)[nH]c1=O
    11, 9, -4, -18, -5, 2.4, 3802
(34) COC(=O)[C@H](Cc1ccccc1)NC(=O)NCc1ccc(S(N)(=O)=O)cc1
    0, -1, 8, -12, 6, 4.5, 10796
(35) COCCn1c(SCC(=O)Nc2ccc(C(C)=O)cc2)nc2c([nH]c3ccccc32)c1=O
    ., ., 4, -1, ., ., 5679
(36) COc1ccc(C(=O)NN=C(C)CC(=O)Nc2ccc(N(C)C)cc2)c(OC)c1
    5, -5, ., ., 6, 0.3, .
(37) Cc1nn(Cc2ccccc2Cl)c(C)c1NC(=O)CSc1n[nH]c(C)c1[N+](=O)[O-]
    0, -2, 10, ., 12, 7.4, .
(38) Nc1[nH]nc2c1NN(c1ccc(Cl)cc1Cl)N2
    8, 3, -16, -12, 6, -0.5, 1941
(39) CC1(C)Oc2ccc3ccc(=O)oc3c2/C(=C/N)C1=O
    1, 12, -11, -16, 1, 5.0, 8436
(40) N#Cc1cc2sc3nnc(-c4ccncc4)n3c2cc1C#N
    ., ., -9, -2, -1, 2.6, 4323
(41) O=C(CC1C(=O)NCCN1Cc1cccc(Oc2ccccc2)c1)NCCc1cnccn1 (stereo unspecified)
    -7, -14, -7, 11, 10, 2.5, 3603
(42) CCOC(=O)c1c(NC(=O)CSc2nnc(-c3ccncc3)n2Cc2ccco2)sc(C)c1C
    1, 3, 0, -9, 3, 3.8, 9152
(43) COc1ccc(C(=O)Nc2ccc(S(=O)(=O)N3CCOCC3)cc2)cc1OC
    7, 6, 9, 0, -2, 5.1, 3268
(44) CCOC(=O)/C(=C/C=C/c1ccccc1)NC(=O)c1ccccc1
    ., ., -2, -40, ., ., 2589
(45) Cc1ccc(S(=O)(=O)NCCC(=O)NNC(=O)c2ccccc2O)cc1C
    14, 5, 4, -32, 5, 5.3, .
(46) C=C1CCN(Cc2ccccc2)S(=O)(=O)c2ccccc21
    12, 2, -2, -16, 0, 5.4, 3063
(47) Cc1c(NC(=O)c2ccc(F)c(S(=O)(=O)N3CCOCC3)c2)c(=O)n(-c2ccccc2)n1C
    9, 9, 5, 4, -3, 5.3, ?
(48) CCc1cccc2c(=O)c(C(=O)NCCCOC)c[nH]c12
    4, 4, 34, -12, 7, 7.1, 4149
(49) CCCN1CCN(C(=O)c2ccc3nc(CC)c(CC)nc3c2)CC1
    5, 7, 0, -12, 2, 2.6, 3742
(50) CC1(C)CC(=O)C(CO)=C(c2cccc3ccccc23)C1=O
    11, 8, ., -4, 1, 6.6, 3907
(51) CCOC(=O)c1cc(NC(=O)c2ccc(C)cc2)c(=O)oc1C(F)(F)F
    13, -2, -6, -25, 4, -1.2, 1996
(52) Oc1cccnc1SCc1ccccc1
    2, 0, 3, -16, 1, 1.6, 3446
(53) CC(C)(C)c1ccc(C(CC(=O)O)NC(=O)Cc2ccc(F)cc2)cc1 (stereo unspecified)
    5, 4, -1, ., -1, 3.2, .
(54) COC(=O)c1ccc(/C=C/c2c(-c3ccc(OC)cc3)oc3ccccc23)cc1
    ., ., 0, 8, ., ., 2937
(55) CCn1cnc2sc(C(=O)Oc3cccc(C)c3)c(C)c2c1=O
    11, 8, -11, -36, 16, 3.7, 4168
(56) CCc1nc(SCC(=O)c2ccc(C)c(C)c2)n[nH]1
    -1, -2, 2, -24, 2, 1.0, 14899
(57) C/C(=N\Nc1ncc(Cl)cc1Cl)c1ccc(S(=O)(=O)NCc2ccco2)cc1
    ., ., -5, -60, ., ., 2139
(58) CC(C)(C)NC(=O)CSc1nc2scc(-c3ccccc3)c2c(=O)[nH]1
    0, 5, -2, -18, -6, 7.7, 2548
(59) O=C1O/C(=C/c2ccccc2)N=C1c1ccccc1
    4, 3, 9, 12, 7, 6.3, 7344
(60) C/C=C/C(=O)OCC(=O)Nc1cc(-c2cc(C)c(C)cc2C)nn1-c1ccccc1
    7, 3, -7, -21, 5, -4.3, 2560
(61) CCCCCCc1cc2cc(-c3nnc(-c4ccccc4O)o3)c(=O)oc2cc1O
    -10, 0, 23, -11, 97*, 67, 8438
(62) O=C(NCc1ccccc1Cl)C1CCCN(S(=O)(=O)c2cccc3nsnc23)C1 (stereo unspecified)
    9, 19, 1, -13, 1, 4.5, 6606
(63) CCc1ccc(OCCNC(=O)c2cccs2)cc1
    ., ., 10, 0, 8, 1.4, 4914
(64) CC(OC(=O)c1ncc(Cl)c(Cl)c1Cl)C(=O)NC1(C#N)CCCCC1 (stereo unspecified)
    5, -6, -1, -10, 2, 2.0, ?
(65) CCOc1ncccc1C(=O)OCc1csc(CC(=O)Nc2ccccc2C)n1
    1, 10, ., -5, -4, 0.7, 5841
(66) C#CCOCCOCCOCCNc1nc(N2CCN(C(=O)C([C@@H](C)CC)n3cc(C(N)Cc4ccc(O)cc4)nn3)CC2)nc(N2CCN(C(=O)[C@H](CCC(=O)O)n3cc(C(N)CC(C)C)nn3)CC2)n1 (stereo partly specified)
    6, 8, 8, -7, -4, -6.4, 3998
(67) Cc1cc(CN2C(=O)c3ccccc3C2=O)cc(N2CCOCC2)c1
    -7, 5, -1, 1, -2, 3.3, 9628
(68) Cc1ccc(C(=O)OCC(=O)NCCc2ccccc2)cc1C
    3, -2, ., -9, 2, 2.6, 5577
(69) CCOC(=O)CSC1=N/C(=C\c2ccc(OC)c(OC)c2)C(=O)N1C
    1, -5, 2, -10, 9, 3.5, 10767

Part of the list above, in transposed form.
64: CC(OC(=O)c1ncc(Cl)c(Cl)c1Cl)C(=O)NC1(C#N)CCCCC1 (stereo unspecified)
66: C#CCOCCOCCOCCNc1nc(N2CCN(C(=O)C([C@@H](C)CC)n3cc(C(N)Cc4ccc(O)cc4)nn3)CC2)nc(N2CCN(C(=O)[C@H](CCC(=O)O)n3cc(C(N)CC(C)C)nn3)CC2)n1 (stereo partly specified)

compound no.,64,66
Mtb hypoxia inh,5,6
Mtb hypoxia inh growth,-6,8
BJeLR viability,-1,8
PrP 5UTR inh,-10,-7
Sa ugtP lethal,2,-4
Sa RN4220 lethal,2.0,-6.4
Autofluor counter,?,3998

Assay outcomes as filed in PubChem.
